# From PubChem
# NPYLR7 ag – mosquito NPYLR7 agonism | activation, % at 10 µM | HEK293T NPYLR7/Galpha15, GCaMP6s calcium fluorescence | 270,000 tested, 0.15% active | AID 1259423; in the data active means activation above about 40%;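 further: 0% = vehicle and 100% = reference agonist at the receptor; some compounds past the cut are filed as inactive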
# NPYLR7 ag max-min – second read-out of NPYLR7 ag, no call of its own (marks repeat the call); activation, %; measured here: Max-Min RFU normalised activation; some inactives read as strong as hits;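 span of the calcium signal over five minutes; 0% = vehicle and 100% = native peptide agonist; compound fluorescence can raise it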
# Numbers without * were called inactive; & = joins results of further samples.
# Start of the data: the first 16 compounds as a preview:
SMILES,NPYLR7 ag,NPYLR7 ag max-min
CC(C)=CCN1CCNC(=O)C1CC(=O)NCC(C)(C)N1CCCC1 (configuration not stated),1,-3
COc1ccc(Br)c(C(=O)NC2CCC(C)CC2)c1 (configuration not stated),10,11
CCC(CC)(NS(=O)(=O)c1c(C)c(Cl)cc(C)c1Cl)C(N)=O,-2,-4
COC(=O)c1nc(NC(=O)C(F)(F)F)n[nH]1,5,4
CNC(=O)COC1CN(C(=O)c2cc3c(s2)CCC(C)C3)C1 (configuration not stated),-2,-3
CCN(CC)CCn1c2c(c(SCC(=O)Nc3cc(C)ccc3C)nc1=O)CCC2,-2,-5
Cc1c(C(=O)NCC2COC(C)(C)O2)cnc2c(-c3ccc(C(C)C)cc3)cnn12 (configuration not stated),17,1
CCOC(=O)C1(NCCn2cnc3ccsc3c2=O)CCCCC1,5,-9
Clc1cccc(N2CCN(c3nnnn3-c3ccccc3)CC2)c1,-2,-3
O=C(c1cccc(Br)c1)N(Cc1csc(COc2ccc(Cl)cc2)n1)C1CC1,5,14
CC(Sc1ccc(S(C)(=O)=O)cc1S(C)(=O)=O)c1c(F)cccc1F (configuration not stated),-2,-3
Cc1cccc(CO[C@]2(C(=O)NN3CCOCC3)CC(OCc3cccc(Cl)c3)[C@H](O)[C@H](O)C2)c1 (some centres not stated),4,18
COc1ccc(CNS(=O)(=O)c2ccc(OC)c(C)c2)cc1,13,13
CCOC(=O)c1ccc(NC(=O)Cn2nc(SC)c(S(=O)(=O)c3ccc(C)cc3)c2N)cc1,3,-8
CC(C)c1nccn1C(C)C(=O)N1CCN(C)C2(CCN(C)CC2)C1 (configuration not stated),5,3
O=[N+]([O-])c1cccnc1N/N=C\c1ccc(Cl)c(Cl)c1,10,15

# Results, from the first entry:
SMILES,NPYLR7 ag,NPYLR7 ag max-min
CC(C)=CCN1CCNC(=O)C1CC(=O)NCC(C)(C)N1CCCC1 (configuration not stated),1,-3
COc1ccc(Br)c(C(=O)NC2CCC(C)CC2)c1 (configuration not stated),10,11
CCC(CC)(NS(=O)(=O)c1c(C)c(Cl)cc(C)c1Cl)C(N)=O,-2,-4
COC(=O)c1nc(NC(=O)C(F)(F)F)n[nH]1,5,4
CNC(=O)COC1CN(C(=O)c2cc3c(s2)CCC(C)C3)C1 (configuration not stated),-2,-3
CCN(CC)CCn1c2c(c(SCC(=O)Nc3cc(C)ccc3C)nc1=O)CCC2,-2,-5
Cc1c(C(=O)NCC2COC(C)(C)O2)cnc2c(-c3ccc(C(C)C)cc3)cnn12 (configuration not stated),17,1
CCOC(=O)C1(NCCn2cnc3ccsc3c2=O)CCCCC1,5,-9
Clc1cccc(N2CCN(c3nnnn3-c3ccccc3)CC2)c1,-2,-3
O=C(c1cccc(Br)c1)N(Cc1csc(COc2ccc(Cl)cc2)n1)C1CC1,5,14
CC(Sc1ccc(S(C)(=O)=O)cc1S(C)(=O)=O)c1c(F)cccc1F (configuration not stated),-2,-3
Cc1cccc(CO[C@]2(C(=O)NN3CCOCC3)CC(OCc3cccc(Cl)c3)[C@H](O)[C@H](O)C2)c1 (some centres not stated),4,18
COc1ccc(CNS(=O)(=O)c2ccc(OC)c(C)c2)cc1,13,13
CCOC(=O)c1ccc(NC(=O)Cn2nc(SC)c(S(=O)(=O)c3ccc(C)cc3)c2N)cc1,3,-8
CC(C)c1nccn1C(C)C(=O)N1CCN(C)C2(CCN(C)CC2)C1 (configuration not stated),5,3
O=[N+]([O-])c1cccnc1N/N=C\c1ccc(Cl)c(Cl)c1,10,15
CNCC(=O)N1CCCCC1CCN1CCCC1=O (configuration not stated),-2,-7
CCn1c(C2CCCNC2)nn(Cc2nc(-c3ccc(C)cc3)no2)c1=O (configuration not stated),-2,-5
COc1cc(C(=O)Nc2ccc(-c3nc4ccccc4o3)cc2)cc(OC)c1OC,-1,7
CN(C)c1ccc(NC(=O)c2cccc(F)c2)cc1CN(Cc1ccco1)C(=O)c1ccco1,0,13
COC(=O)c1cccc(C(=O)NC(C)c2cnn(-c3ccccc3C)c2C)c1 (configuration not stated),-3&3,-3&0
CCOC(=O)Cn1c(=NC(=O)c2ccc(S(=O)(=O)N(CC)CC)cc2)sc2cc(C)ccc21,3,0
CCc1nc(CN2CCCN(C(=O)C(CC)OC)CC2)cs1 (configuration not stated),7,3
COc1ccc(OC)c(C2CC(c3ccc(C)cc3C)=NN2C(=O)CN2CCC3(CC2)OCCO3)c1 (configuration not stated),0,2
COc1cc(OC)cc(C(=O)Nc2c(C)nc3c(C)cccn3c2=O)c1,0,0
CS(=O)(=O)Nc1ccc2c(c1)C(=O)Nc1ccccc1O2,12,9
COC(=O)Cc1csc(N=Cc2c(O)n(C)c(=O)n(C)c2=O)n1,2,1
O=C(NCCCc1ccccc1)NC1CCOC2(CCSC2)C1 (configuration not stated),2,1
O=C(c1cccnc1Oc1ccc(Cl)cc1)N1CCN(c2ccccn2)CC1,-3,-8
Cc1ccc(NC(=O)Nc2ccc(N3CCCC3)c(C(=O)NC(C)c3ccccc3)c2)cc1C (configuration not stated),1,8
Cc1c(C(=O)NCc2ccccc2C(F)(F)F)sc(=O)n1Cc1cccc(F)c1,-3,-4
COc1cc2nc(-c3cc(Cl)c4c(c3)OCCCO4)[nH]c(=O)c2cc1OC,10,8
CS(=O)c1ccc(C(=O)NCC(C)(C)N2CCCCC2)cc1 (configuration not stated),-5,-5
CCOC(=O)c1cc(-c2cccc(NC(=O)c3ccco3)c2)n(-c2ccc(OC)cc2)n1,20,10
COc1cccc(-n2nnc(C(N)=S)c2C)c1,1,-3
COCCNC(=O)c1ccc(C)n1C,23,14
CCOC(=O)Cn1c(N)c(C(=O)OC)sc1=S,6,4
CC1C=CCC2C(=O)N(N(CC(=O)c3ccccc3)C(=O)c3ccc(Cl)c(Cl)c3)C(=O)C12 (configuration not stated),-1,3
CCc1c(C)nc2c(Cl)cccc2c1SCC(=O)O,-2,-4
COCCN(Cc1cccc(OC)c1)Cc1ccc(C(O)(c2ccc(F)cc2)c2ccc(F)cc2)o1,-2,4
Fc1ccc(-c2nc(N3CCN(c4ccc(C(F)(F)F)cn4)CC3)c3ccccc3n2)c(F)c1,-1,-1
O=C(c1ccccc1Oc1ccccc1)N1CCC2(CC1)C(=O)NCN2c1ccccc1,-1,-6
Cc1ccccc1C1CCCN1C(=O)c1ccc(NS(C)(=O)=O)cc1 (configuration not stated),2,-2
NC1=NC(=O)C(Cc2ccccc2)S1 (configuration not stated),-2,-4
CC(=O)C(Cc1ccccc1)NC(=O)COC(=O)c1cccc2c1C(=O)c1ccccc1C2=O (configuration not stated),26,30
CCc1nn2c(NCCOCCO)cc(C)nc2c1-c1ccccc1,2,4
CNc1cncc(-c2ccc3c(c2)OCO3)n1,1,1
CCNC(=O)c1ccc(-c2ccnc3[nH]ccc23)s1,0,-4
CN1C(=S)N(C(c2ccccc2)c2ccccc2)C(=O)/C1=C\c1ccc(O)cc1O,-3,8
CCCS(=O)(=O)c1ncc(CN(C)Cc2csc(C)n2)n1CC1CCCO1 (configuration not stated),5,8
Cc1ccc(OCCNS(=O)(=O)N2CCCCCC2)c(C)c1,4,3
Cc1nn2c(=O)[nH]c(SCc3ccccn3)nc2c1-c1ccccc1,1,-9
COc1ccc(CCOC(=O)C2CCCCN2C(=O)c2ccc(Br)cc2)cc1OC (configuration not stated),-7,-14
Cc1ccc(C(CC(=O)N2CCN(C/C=C/c3ccccc3)CC2)c2c[nH]c3ccccc23)cc1 (configuration not stated),10,20
COCCCNCc1nc2scc(-c3ccc(Cl)cc3)c2c(=O)[nH]1,9,10
CC(Cn1cncn1)NCc1n[nH]c2c1CCC2 (configuration not stated),1,10
Cn1c(CNC(c2cccs2)C(C)(C)C)cc(=O)n(C)c1=O (configuration not stated),-9,-8
Cc1nnc(SCCn2c(N3CCC(C)CC3)nc3c2c(=O)[nH]c(=O)n3C)s1,5,36
Cc1cc(-n2c(C)cc(-c3csc(NC4CC4)n3)c2C)no1,8,12
CC1=C(C(=O)OCC(C)C)C2(O)C(=O)c3ccccc3C2(O)N1 (configuration not stated),2,-4
# Next section.
SMILES,NPYLR7 ag,NPYLR7 ag max-min
O=c1ccn(CCc2n[nH]c(CCc3ccccc3)n2)c(=O)[nH]1,26,12
CCOCCCN(CC(=O)N(Cc1cccn1Cc1ccccc1)C1CCCCC1)S(=O)(=O)c1ccc(Br)cc1,-3,4
CCOc1ccccc1NC(=O)N(CC(=O)Nc1cc(C(C)(C)C)nn1-c1ccccc1Cl)C(C)C,19,13
C=CCN1CCc2cc(O)c(O)cc2C(c2ccccc2)C1 (configuration not stated),2,-26
O=C(Cn1cnc2sc3c(c2c1=O)CCC3)N1CCCCC1,-3,4
COCCNC(=O)C1CCCN(C2CCN(C(=O)Cc3cc(C)no3)CC2)C1 (configuration not stated),29,24
CC(C)CCn1c(N2CCN(Cc3ccccc3)CC2)nc2c1c(=O)[nH]c(=O)n2C,1,15
O=C(c1cccnc1Nc1ccccc1F)N1CCC2(CC1)OCCO2,-1,-3
c1ccc(-c2n[nH]c3c2oc2ccccc23)cc1,-10,-11
COc1ccc(NC(=O)NC(Cc2ccccc2)c2nnc(SCc3ccc(F)cc3)n2-c2cc(Cl)ccc2C)c(OC)c1 (configuration not stated),18,25
CC1(C(=O)NCc2ccc(Cl)cc2)CCN1C(=O)c1cccc(F)c1 (configuration not stated),4,7
COc1ccc(Cl)c(CN2CC[C@@H]3CC[C@H](C2)N3C)c1F,-4,-5
COCCC(=O)N1CCc2c([nH]c3ccccc23)C1c1cccc(C(F)(F)F)c1 (configuration not stated),6,2
O=C(CN1CCCC1=O)N1CCCC2(C=Cc3ccccc3O2)CC1 (configuration not stated),4,4
CC/C(=C/C(=O)Nc1ccc(CS(C)(=O)=O)cc1)c1ccccc1,5,4
CCOc1ccc(-n2c(C(C)N(CCc3ccc(OC)c(OC)c3)C(=O)c3ccc(Cl)c(Cl)c3)nc3ccccc3c2=O)cc1 (configuration not stated),2,5
CCNC(=O)C1(C)CCCN(Cc2ccccc2-c2ccccc2)C1 (configuration not stated),-2,-9
CC(C)(C)NC[C@@H](O)COc1nsnc1N1CCOCC1,-12,-16
CCCN(C(=O)C(=O)Nc1cc(C)on1)C1CC(OCC)C1(C)C (configuration not stated),-3,34
COc1cc(OC)cc(-c2n[nH]c(=S)o2)c1,-7&-1,-9&-1
Cc1nn(-c2ccc(N3CCN(C(=O)c4ccccc4)CC3)nn2)c(C)c1C,-5,-9
Cc1nnsc1C(=O)N(CCc1ccccc1)CC1CCCN(C)C1 (configuration not stated),6,3
Cc1n[nH]c(C)c1SCC(=O)OCC(=O)N(C(C)C)C(C)C,-2,3
COc1ccc(C(=O)N(CC(=O)N(Cc2ccc(F)cc2)Cc2ccc(C)s2)C2CCCCC2)cc1,-5,-14
CC(c1ccccc1)N(Cc1cc(NC(=O)c2ccco2)ccc1N(C)C)C(=O)C1CC1 (configuration not stated),20,27
CNC(=O)[C@@]1(OCc2cccc(C)c2)CC(OCc2cccc(F)c2F)[C@@H]2OC(C)(C)O[C@@H]2C1 (some centres not stated),6,8
Cc1cccc(Cn2c(=O)c(C(=O)NCc3ccco3)nn(-c3ccc(C)c(C)c3)c2=O)c1,6,11
CCCCCCCCn1cc(C(C)=O)c(=O)[nH]c1=O,0,0
Cc1cc(C)n(CCCNC(=O)c2cc(C)[nH]n2)n1,0,-2
O=S(=O)(c1ccc2c(c1)OCCCO2)N1CCN(CC(O)COc2ccc(F)cc2)CC1 (configuration not stated),25,35
CSc1ccc(C(=O)C2CCCN(Cc3nc4ccccc4nc3C)C2)cc1 (configuration not stated),0,-7
COc1cccc(C(=O)N2CCN(Cc3ccc(Cn4cccn4)cc3)CC2)c1,16,11
COc1cc(C2NC(=O)CCC2[N+](=O)[O-])c(OC)cc1Br (configuration not stated),0,12
O=C(Nc1nc([C@@H]2O[C@H](CO)[C@@H](O)[C@H](O)[C@H]2O)cs1)Nc1ccc(Br)c2ccccc12,14,17
CN1C(=O)C(=C2C=C(c3ccccc3)N(CCO)C3=C2CCCC3)C(=O)N(C)C1=O,-6,-9
CNC(=O)CN(C)C(=O)/C=C/c1cc(Br)ccc1OC,1,-1
CNC(=O)NC(=O)C(C)Sc1nc(C)nc2sc(C)c(C)c12 (configuration not stated),-4,-7
O=C(CCn1nnc2ccccc21)N1CCCC(Cn2ccnc2)C1 (configuration not stated),-5,-5
Cc1ccc(-c2csc(SCC(=O)NC(C)(C#N)C3CC3)n2)cc1 (configuration not stated),15,13
CCN(CC)C(=O)c1sc2nc3c(cc2c1N)C(=O)CC(C)(C)C3,5,-2
c1ccc(CN(CC2CCCO2)c2ncnc3ccsc23)cc1 (configuration not stated),4,709
Cc1cc(C(C)(C)C)cc(C)c1S(=O)(=O)Nc1c(C)nn(C)c1C,-3,-2
CC(=O)CC1(O)C(=O)N(CCCOc2ccccc2C)c2ccccc21 (configuration not stated),18,7
CCOc1ccc2oc(C(=O)Nc3cccc(S(=O)(=O)N4CCCC4)c3)c(C)c2c1,12,17
Cc1nc2ccc(C(=O)Nc3cccc(NS(C)(=O)=O)c3)cn2c1N(C)C(=O)CCc1ccccc1,17,13
O=C(NC1CCCCC1)c1ccccc1NS(=O)(=O)c1ccc(F)cc1,-2,4
CC(=O)N(CCN(C)C)c1nc2ccc(Br)cc2s1,-3,-8
COc1ccc(F)cc1C(=O)CN1C(=O)COc2ccccc2C1=O,-8,-9
COc1ccc(NC(=O)NCc2nnc(SCc3ccccc3C)n2-c2ccc(Cl)cc2Cl)c(OC)c1,17,12
Cc1occc1C(=O)NCc1nc(-c2ccc(NC(=O)Cc3ccccc3)cc2)oc1C,2,-3
Fc1ccc(NC(=S)N2CCCC(C(F)(F)F)C2)cc1 (configuration not stated),-2,-3
COc1ccccc1-c1cc(C(=O)N2CCN(Cc3ccccc3)CC2)nc2cc(C(C)(C)C)nn12,-3,4
CCc1nn2c(-n3ccnc3)cc(C)nc2c1-c1ccccc1,-3,-6
CCOC(=O)[C@H]1C[C@]2(CCCCNC2=O)N(C(=O)c2cc(C)oc2C)[C@H]1c1ccco1,6,16
O=C(NCC1(c2ccccc2)CCC1)c1ccc2c(c1)OCO2,16,10

# Only part of the results is shown. The share of hits here may be higher or lower than overall.
